Source: PubChem BioAssay
VACV Venus inh: vaccinia inhibition (Venus reporter); Vaccinia virus Venus reporter expression, fluorescence; Potency, µM (series often up to 36.5 µM), without a hit: at the top dose activity change, negative = inhibition, actives largely listed as inhibitors; 330,000 tested, 0.46% active; active means well fitted inhibition curve with a large enough effect; inconclusive means small, poorly fitted or top-dose-only effect; inactive means no such curve, though single readings can be large or run the other way; tested in A549 cells; further: nearly all actives have a fitted effect of over 30% in size; inactives centre near -10
VACV mCherry inh: inhibitors of vaccinia virus infection (mCherry reporter signal); Potency, µM (doses to about 36.5 µM), without a hit: top-dose activity change, negative = inhibition, actives largely listed as inhibitors; AID 720579; 310,000 tested, 0.63% active; Vaccinia virus mCherry reporter infection, fluorescence; about a quarter of the inactives have no number; active = well fitted inhibition curve with a large enough effect; inconclusive = small, poorly fitted or top-dose-only effect; inactive = no such curve, though single readings can be large or run the other way; tested in A549 cells; further: nearly all actives have a fitted effect of over 35% in size; inactives centre near -10
* hit, by the source's call; i = inactive; ? = inconclusive; . = no result given; [ ] = another dose, or the depositor's remark. On the % scale 0 is the no-effect control and ±100 the full control effect; potency means the concentration at half of the fitted maximal effect.

Sequence of screens – VACV Venus inh | VACV mCherry inh
[1] COc1ccc2[nH]c3c(c2c1)CCN1C(=O)C(CC(=O)NCC24CC5CC(CC(C5)C2)C4)C[C@H](C(=O)N2CCCCC2)[C@@]31C (some centres undefined)
  ? | ?
[2] O=[N+]([O-])c1ccc(NS(=O)(=O)c2ccccc2)c(Cl)c1
  -14% | ?
[3] Cc1cc(CN(Nc2ccccc2)c2ccccc2)cc(C)n1
  -3% | -4%
[4] CC(Sc1nnc2ccccn12)C(=O)Nc1ccc2c(c1)OCO2 (centres undefined)
  -11% | -22%
[5] Fc1ccc(/C=N/N2CCOCC2)c(F)c1
  -10% | -8%
[6] CCCOc1cccc(C(=O)O)c1
  -19% | -3%
[7] Cc1ccc(C(=O)NCC(=O)OCC(=O)c2ccc(Br)s2)cc1
  3% | -1%
[8] Cn1c(=N)c(S(=O)(=O)c2ccccc2)cc2c(=O)n3ccccc3nc21
  -17% | .
[9] CCOC(=O)c1ccccc1NC(=O)COC(=O)CN1C(=O)NC2(CCCC2)C1=O
  -12% | -4%
[10] CCOc1ccc(-c2ccc3nnc(SCC(=O)NCC4CCCO4)n3n2)cc1 (centres undefined)
  -9% | -14%
[11] NCCCC[C@H]1CN=C(N)N1CC1CCCCC1
  -11% | i
[12] O=[N+]([O-])c1cccc(CP(=O)(c2ccccc2)c2ccccc2)c1
  -10% | -22%
[13] Cn1c2c(c(=O)[nH]c1=O)C(c1ccc(O)cc1)C1=C(N2)c2ccccc2C1=O (centres undefined)
  -4% | -13%
[14] O=C(NC1CC2CCCC(C1)N2C(=S)Nc1ccc(Cl)cc1)C1CC1 (centres undefined)
  -1% | -9%
[15] COc1cc(OC)c(/C=C/c2ccnc3ccccc23)c(OC)c1
  -21% | ?
[16] CC(=O)c1ccc(OCC(=O)N2CCN(S(=O)(=O)c3ccc(C)cc3C)CC2)cc1
  -28% | -38%
[17] O=C(CSc1ccc(Cl)cc1)N/N=C/c1cccnc1
  -4% | i
[18] CC(=O)N1CCN(C(=O)CCc2nnc(CCCCc3ccccc3)o2)CC1
  -11% | -1%
[19] O=C(Nc1ccc2ccccc2c1)c1cc(F)c(F)cc1Cl
  -6% | 11%
[20] COc1ccc(OC(C)C(=O)Nc2ccc(F)cc2F)cc1 (centres undefined)
  -4% | -14%
[21] CCC(C)(C)n1nnnc1C(c1ccc2ncccc2c1)N1CCN(Cc2ccc3c(c2)OCO3)CC1 (centres undefined)
  -3% | -13%
[22] CCOc1ccc(NC(=O)CSC2=C(C#N)C(c3ccc4c(c3)OCO4)CC(=O)N2)cc1 (centres undefined)
  -18% | -27%
[23] O=S(=O)(Nc1ccc(-c2csc(-c3ccccc3)n2)cc1)c1ccc(F)cc1
  -26% | -21%
[24] CCOC(=O)C1CCN(C(=O)c2sc3ncn(CC(=O)N4CCCCC4)c(=O)c3c2C)CC1
  -4% | 0%
[25] Cc1c(Cl)cccc1Nc1nn2c(=O)c3ccc(C(=O)NCCc4ccccc4)cc3nc2s1
  ? | ?
[26] COc1ccc(-c2nc3ccccc3c(=O)[nH]2)cc1
  -4% | -12%
[27] CC(C)(C)NS(=O)(=O)c1ccc(CCC(=O)NCc2ccc3c(c2)OCO3)cc1
  -4% | -16%
[28] CN(C)c1ccnc2c[cH-]cc12.[Fe].c1ccc(-[c-]2[c-](-c3ccccc3)[c-](-c3ccccc3)[c-](-c3ccccc3)[c-]2-c2ccccc2)cc1 (centres undefined)
  ? | ?
[29] COC(=O)c1ccc(CN2CCC(Oc3ccc(C(=O)N4CCCCC4)cc3)CC2)cc1
  -20% | -23%
[30] CC(=C\C(=O)O)/C(=C/c1ccccc1)C(=O)O
  ? | -7%
[31] COc1cc(NC(=S)Nc2cccnc2)cc(OC)c1OC
  30% | -5%
[32] COc1ccc(-c2nnc(SCC(=O)NC(C)C)n2CC2CCCO2)cc1OC (centres undefined)
  -9% | -17%
[33] CC(=O)Nc1ccc(Nc2ncc([N+](=O)[O-])c(Nc3ccc(NC(C)=O)cc3)n2)cc1
  -8% | .
[34] CN(C)CCNC(=O)c1cccc(-c2cnc3c(NC=O)cc(/C=C/c4ccccc4)cn23)c1
  -15% | -14%
[35] O=S(=O)(N1CCOCC1)n1c(Cc2ccccc2)nc2ccccc21
  -8% | -13%
[36] COc1cc2[nH]c(=O)n(CCCC(=O)NCc3ccc(Cl)cc3)c(=O)c2cc1OC
  2% | -17%
[37] COc1ccc(Cl)cc1NC(=S)NCc1ccc(S(N)(=O)=O)cc1
  -15% | -24%
[38] O=C(c1ccc2c(c1)N(Cc1ccc(F)cc1)C(=O)c1ccccc1S2)N1CCC2(CC1)OCCO2
  -11% | -1%
[39] CC(C)[C@H](CO)N(Cc1cccc(F)c1)c1nc(Nc2cccc(Cl)c2)c2ncn(C(C)C)c2n1
  -22% | i
[40] COc1ccc(NC(=O)/C(=C\c2ccccc2)NC(=O)c2ccco2)cc1
  -9% | -5%
[41] O=C(Nc1ncc(Cc2ccc(Cl)cc2Cl)s1)c1ccc([N+](=O)[O-])cc1
  -6% | ?
[42] CCN(CC)CCn1c2c(c(SCC(=O)Nc3ccc(C)c(F)c3)nc1=O)CCCC2
  -27% | -17%
[43] Cc1cccc(NC(=S)NCCSc2ccc(Cl)cc2)c1
  -9% | -12%
[44] CCCCCCOc1ccc(C2C(=O)N(C3CCCCC3)CC(=O)N2C2CCCCC2)cc1 (centres undefined)
  -10% | -19%
[45] Cc1ccc(S(=O)(=O)N(C)C)cc1NC(=S)NC(=O)C12CC3CC(CC(C3)C1)C2
  -9% | i
[46] CC(C)C(C)NC(=O)COc1ncnc2ccccc12 (centres undefined)
  -11% | -11%
[47] NC(CCc1ccccc1)c1csc(Nc2ccc(C(F)(F)F)cn2)n1 (centres undefined)
  ? | ?
[48] CCC/C(=C1/c2ccccc2C(=O)N1c1ccccc1)c1ccc(O[C@@H]2CCCCO2)cc1
  -6% | -1%
[49] CC(NC(=O)C(=O)NN=C1CCCCCCCCCCC1)c1ccccc1 (centres undefined)
  -7% | -5%
[50] O=C(Nc1ccc(-n2cccc2)cc1)C1CC1
  -7% | i
[51] O=P(N1CCCCCC1)(N1CCCCCC1)N1CC1
  3% | -16%
[52] N#C/C(=C\c1c(Cl)cccc1Cl)c1nc2ccccc2o1
  -8% | ?
[53] Cc1ccc(S(=O)(=O)c2nc(S(C)(=O)=O)sc2N2CCC(O)CC2)cc1
  0%[7.34 µM] | -5%[7.34 µM]
[54] CN(CC1CCOCC1)C(=O)CC1C(=O)NCCN1Cc1ccc(-c2ccccc2)cc1 (centres undefined)
  -5% | -11%
[55] O=[N+]([O-])c1ccc(NCCNCCOc2nonc2-c2ccccc2)c([N+](=O)[O-])c1
  -11% | -9%
[56] COc1ccccc1N1CCN(C(=O)c2[nH]c(C(F)(F)F)nc2-c2ccccc2)CC1
  ? | 0%
[57] O=C(Cn1cc(C(=O)C(F)(F)F)c2ccccc21)N1CCCCCC1
  4% | 2%
[58] COc1ccccc1NC(=S)N1CCN(Cc2ccccc2)CC1
  -8% | i
[59] CCCCSc1nc(C)c(CC(=O)O)c(=O)[nH]1
  -4% | .
[60] CCOc1ccccc1NC(=O)CSc1c2c(nc3ccc(Cl)cc13)CCCC2
  -18% | -11%

Structures shown so far that contain an NH in an aromatic ring, in the order listed:
Sequence of screens – VACV Venus inh | VACV mCherry inh
[1] COc1ccc2[nH]c3c(c2c1)CCN1C(=O)C(CC(=O)NCC24CC5CC(CC(C5)C2)C4)C[C@H](C(=O)N2CCCCC2)[C@@]31C (some centres undefined)
  ? | ?
[13] Cn1c2c(c(=O)[nH]c1=O)C(c1ccc(O)cc1)C1=C(N2)c2ccccc2C1=O (centres undefined)
  -4% | -13%
[26] COc1ccc(-c2nc3ccccc3c(=O)[nH]2)cc1
  -4% | -12%
[36] COc1cc2[nH]c(=O)n(CCCC(=O)NCc3ccc(Cl)cc3)c(=O)c2cc1OC
  2% | -17%
[56] COc1ccccc1N1CCN(C(=O)c2[nH]c(C(F)(F)F)nc2-c2ccccc2)CC1
  ? | 0%
[59] CCCCSc1nc(C)c(CC(=O)O)c(=O)[nH]1
  -4% | .

Back to the main list, starting 2 compounds before the break.
Sequence of screens – VACV Venus inh | VACV mCherry inh
[59] CCCCSc1nc(C)c(CC(=O)O)c(=O)[nH]1
  -4% | .
[60] CCOc1ccccc1NC(=O)CSc1c2c(nc3ccc(Cl)cc13)CCCC2
  -18% | -11%
[61] CN(Cc1ccccc1)C(=O)c1ccc(NC(=O)Cc2cccc(NC(=O)C3CCCN(C(=O)C4CCC4)C3)c2)cc1 (centres undefined)
  -25% | -2%
[62] CCN(CC)CCCNC(=S)N(Cc1cccnc1)Cc1cc2cccc(C)c2[nH]c1=O
  -8% | i
[63] CN(C)C(=S)N=c1ssc(=S)n1Cc1cccnc1
  -18% | i
[64] COC(=O)c1cnn2c(C(F)(F)F)cc(-c3ccco3)nc12
  -2% | -14%
[65] CC(C)(C)c1ccc(NNC(=O)C2CCC2)cc1
  -8% | -23%
[66] COc1ccc([C@@H]2C[C@@H](c3ccccc3)Oc3cc(OC)cc(OC)c32)cc1
  -14% | -11%
[67] CCOCCCNC(=O)c1cc(Cl)c(NC(=O)C2=C(C)OCCS2)cc1OC
  -25% | -27%
[68] Cc1[nH]nc(N)c1-c1ccc(Cl)cc1
  -6% | -20%
[69] Cc1cc(C)nc(N2CCCC(C(=O)NCc3ccc4c(c3)OCO4)C2)n1 (centres undefined)
  -10% | i
[70] O=C1CCCN1CCCNS(=O)(=O)c1cccc(F)c1
  -1% | -6%
[71] Cc1cc(NC(=O)CCC(=O)N(Cc2cccs2)C(C(=O)NC2CCCC2)c2ccccc2)no1 (centres undefined)
  -18% | .
[72] O=C(Nc1cccc2ccccc12)ON=C1CCCCC1
  -19% | ?
[73] Cc1sc2c(=O)n3c(nc2c1C(=O)NC1CCCCC1)CCCCC3
  -15% | -2%
[74] O=C(CN1C(=O)COc2ccccc21)NCCC1=CCCCC1
  0% | i
[75] Cc1ccccc1Nc1nnc(SCc2cc([N+](=O)[O-])cc3c2OCOC3)s1
  ? | -11%
[76] CC(=O)N/C(=C\c1ccc(C)o1)C(=O)NCc1ccccc1
  3% | -10%
[77] Cc1cccc(C(=O)OCC(=O)Nc2sc3c(c2C#N)CCC3)c1
  1% | 2%
[78] Cc1nn2c(=O)cc(COC(=O)c3ccccc3NC(=O)C(C)C)nc2s1
  ? | -19%
[79] C[n+]1cccc(C(=O)O)c1
  -18% | -2%
[80] CCCCOc1ccc(C(=O)NN2CCN(C)CC2)cc1
  -4% | -8%
[81] COC(=O)C1=CO[C@@H](O[C@@H]2O[C@H](CO)[C@@H](O)[C@H](O)[C@H]2O)[C@H]2[C@@H]1C(=O)C[C@@H]2C
  0% | i
[82] CCn1nc(C)c(CN2Cc3ccccc3OC(c3ccccc3OC)C2)c1C (centres undefined)
  -5% | -13%
[83] COc1cc(-c2nnc(SCC(=O)N3c4ccccc4Sc4ccccc43)o2)cc(OC)c1OC
  -10% | .
[84] C/C=C(\C)CN1CCC(Oc2cccc(C(=O)NCc3ccccn3)c2)CC1
  -14% | ?
[85] Cc1cc(C)c(C(O)c2ncc(-c3ccccc3C)[nH]2)c(C)c1 (centres undefined)
  0% | i
[86] CC12CCCCC1N(O)CN2O (centres undefined)
  5% | .
[87] O=C1CN(C(=O)CSc2nnc(Nc3ccccc3)s2)c2ccccc2N1
  -8% | -14%
[88] CCN(CC)CCOc1c(C)cccc1Cl
  -13% | -7%
[89] O=S(=O)(c1ccccc1)N1CCN(CC2CC3C=CC2C3)CC1 (centres undefined)
  -14% | -3%
[90] Cc1cc(=O)oc2cc(OCCCN3C(=O)c4ccccc4C3=O)ccc12
  -8% | -16%
[91] COc1ccc(-n2nnnc2SCC(=O)NC(=O)Nc2ccc3c(c2)OCCO3)cc1
  -10% | .
[92] COc1cccc(Cn2nnc(C(=O)NCc3ccc4c(c3)OCO4)c2N)c1
  -3% | -6%
[93] Nc1nc(-c2ccco2)nn1S(=O)(=O)c1ccccc1
  -1% | -8%
[94] COc1ccc(CCNC(=O)c2ccccc2OCc2ccccc2)cc1
  -15% | -18%
[95] COc1ccc(-c2nsc3c(N4CCCCC4C)ncnc23)cc1 (centres undefined)
  -6% | i
[96] C(=C\c1ccccc1)/CN1CCN(C(c2cccc3ccccc23)c2nnnn2C2CCCC2)CC1 (centres undefined)
  -20% | 7%
[97] CC(=O)NCCC(Cc1ccccc1)c1ccco1 (centres undefined)
  ? | .
[98] Cc1ccc(Cl)cc1N1CCN(C(=O)C2CCN(S(=O)(=O)c3cccc4nonc34)CC2)CC1
  -16% | -26%
[99] CCC(C)NC(=O)CSc1nc2n[nH]c(C)c2c(=N)n1-c1ccc(C)c(Cl)c1 (centres undefined)
  -23% | ?
[100] COc1ccc(CCNC(=O)C(Sc2ccccn2)c2ccccc2)cc1OC (centres undefined)
  -28% | -22%
[101] Cc1ccccc1Nc1nc(NCc2ccco2)c2ccccc2n1
  ? | ?
[102] CC(=O)c1cccc(NC(=O)c2noc3c2CC(C)CC3)c1 (centres undefined)
  -8% | -17%
[103] O=C1CN(C(=O)c2ccc(S(=O)(=O)N3CCCC3)cc2)C(c2ccc(F)cc2)c2cc(F)ccc2N1 (centres undefined)
  -19% | -12%
[104] Nc1ncnc2c1ncn2C1CC(O)C(CO)O1 (centres undefined)
  3% | 2%
[105] CCOc1ccc(C(=O)Nc2ccncc2)cc1
  -20% | -21%
[106] COc1ccc2[nH]c(=O)c(CN(c3ccccc3)S(=O)(=O)c3ccccc3)cc2c1
  -6% | i
[107] COc1cc(=O)n2c(c1C(=O)NC(C)c1ccco1)CCN(Cc1ccccc1C(F)(F)F)CC2 (centres undefined)
  -7% | -13%
[108] Cc1ccc(-n2nnnc2SCc2nnc(-c3ccccc3Br)o2)c(C)c1
  -20% | -14%
